Assay outcomes: PubChem BioAssay, National Center for Advancing Translational Sciences (NCATS)
LT uptake inh = qHTS Assay for Anthrax Lethal Toxin Internalization; AID 912, 2007; 70,000 compounds, 0.67% hits; Cells, anthrax lethal toxin internalization, FRET ratio (460/530); Potency, µM (series often up to 40 µM), for inactives: at the top dose activity change, negative = inhibition, hits mostly inhibitors; active = well fitted falling ratio curve with the 530 nm signal flat; inconclusive = other ratio curves, or a change in one channel alone; inactive = flat curves in the ratio and both channels; the % refers to the ratio; note: % is set by controls: 0 for no effect and ±100 for the full control effect; nearly all actives have a fitted effect of over 50% in size; tested in ME-180 cells; beta-lactamase reporter
Prx2 Sm inh = Schistosoma Mansoni Peroxiredoxins (Prx2). Schistosoma mansoni peroxiredoxin 2 (Prx2). S. mansoni Prx2 activity coupled to TGR/GSH (TGR is thioredoxin glutathione reductase), NADPH fluorescence loss, qHTS; some inactives read as strong as hits. Potency, µM. 65,000 compounds, 0.07% hits. AID 448, 2006; active means full or partial inhibition curve with a strong effect at the top dose; inconclusive means weaker partial or single-point curve; inactive means no accepted curve; note: series up to 57 µM; many of its hits are not listed in these tables
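Enzyme mix: 100 uM NADPH, 25 nM TGR, 700 uM GSH, 50 nM Prx2 in 100 mM phosphate pH 7.4, 10 mM EDTA, 0.01% Tween-20. 15 min RT with compound; NADPH/GSH added, H2O2 starts reaction; NADPH fluorescence read 8 min.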
Active calls of the source: *; ? = inconclusive; . = not tested or not shown; & = joins results of further samples; [ ] = remark or other dose. Potency is the fitted concentration of half-maximal effect. An excerpt; count on the stated rates, not on these rows.

Value order: Prx2 Sm inh, LT uptake inh
1. Cc1ccc(OCC(O)Cn2c(=N)n(CCN3CCOCC3)c3ccccc32)cc1 (configuration not stated)
    >57, -8%
2. CCN(CC)C(=O)CSC(=Nc1ccccc1F)NC#N
    >57, 29%
3. CN(C(=O)c1ccc(NC(=O)c2cnccn2)cc1)C1CCCCC1
    >57, -13%
4. COc1cc(/C=C/C(=O)CC(=O)/C=C/c2ccc(O)c(OC)c2)ccc1O
    ., ?
5. CN(Cc1ccccc1)C(=O)CCNC(=O)Cn1cnc2ccccc2c1=O
    >57, 4%
6. COc1ccc(C)cc1NC(=O)CN(c1ccc(F)cc1)S(C)(=O)=O
    ., -11%
7. COc1ccc(-n2nnnc2SCC(=O)N2CCCC2)cc1OC
    >57, 15%
8. Nc1cccc2nsnc12
    >57, -2%[8 µM]
9. CCOCCCNC(=O)C(c1ccc(Cl)cc1)N1CCC2(CC1)OCCO2 (configuration not stated)
    >57, 8%
10. Fc1ccc([C@H]2CCNC[C@H]2COc2ccc3c(c2)OCO3)cc1
    >57, -14%
11. Cc1ccccc1Cc1c(C)nc2ncnn2c1C
    >57, -1%
12. O=C(Oc1ccc2c3c(c(=O)oc2c1)CCCC3)c1ccco1
    55*, ?
13. O=C(NCc1ccco1)NC12CC3CC(CC(C3)C1)C2
    ., -3%
14. COc1ccc(NC(=O)C2CCCN2C(=O)OCc2ccccc2)c(OC)c1 (configuration not stated)
    >57, 3%
15. CC1CCN(CC(O)COc2cccc(F)c2)CC1 (configuration not stated)
    >57, -6%
16. COc1cccc(C2NC(=O)NC(C)=C2C(=O)Nc2ccc(C)cc2)c1 (configuration not stated)
    >57, 6%
17. Clc1ccc(CSc2nnc(-c3ccccn3)n2Cc2ccco2)c(Cl)c1
    >57, ?
18. COc1ccc(NC(=O)Nc2cc(C)ccc2OC)cc1
    >57, -1%
19. CCOc1cccc(=O)c2c(C)n(C)c(C)c12
    >57, -11%
20. CS(=O)(=O)c1nc(-c2ccco2)cc(C(F)(F)F)n1
    >57, 10µM*
21. O=C(O)/C=C/C(=O)O
    ., -2%
22. O=C(CSc1ccc2nnc(-c3cccnc3)n2n1)NCc1ccc2c(c1)OCO2
    >57, 5%
23. C=C(C)CC1Nc2ccccc2NC1CC(=C)C (configuration not stated)
    >57, 3%
24. N#CCCN1CCn2c1nc1ccccc12
    >57, 2%
25. Cc1nnc(NC(=O)CSc2nnc(Cc3cccn3C)n2-c2cccc(C(F)(F)F)c2)s1
    >57, -3%
26. CN(Cc1ccco1)c1ncncc1-c1ccccc1C(F)(F)F
    >57, 1%
27. N#CC1=C2SCN(c3ccccc3)CN2C(=O)CC1c1ccccc1Cl (configuration not stated)
    >57, ?
28. CCn1c(CCC(=O)Nc2cc(F)ccc2C)nc2cc(S(=O)(=O)N(C)C)ccc21
    >57, ?
29. CCCc1ccc(S(=O)(=O)NCCc2ccncc2)cc1
    >57, 14%
30. COc1ccc(N2CCN(C(=O)CN(c3cccc(Br)c3)S(C)(=O)=O)CC2)cc1
    ., -12%
31. CCN1C(=O)[C@H]2[C@H]3[C@H](O)[C@H](O)C/C(=N/O[C@@H](C)CN4CCCc5nc(C)c(C)cc54)[C@@H]3CC[C@@H]2C1=O
    ., -10%[1.6 µM]
32. COC(=O)c1ccc(CSc2nnc(Nc3ccccc3OC)s2)o1
    >57, -16%
33. CC(C)c1ccc2oc(-c3ccc(NC(=O)c4ncn[nH]4)cc3)nc2c1
    >57, -10%
34. COc1ccc(C(=O)Nc2ncc3c(n2)CC(c2ccco2)CC3=O)cc1 (configuration not stated)
    >57, -1%
35. CC(C)C(C(=O)Nc1nccs1)c1ccccc1 (configuration not stated)
    >57, -8%
36. CCn1c(=N)n(CC(=O)c2cccc(OC)c2)c2ccccc21
    ., ?
37. COc1ccc(N2CSC3=C(C#N)C(c4cccs4)CC(=O)N3C2)cc1 (configuration not stated)
    >57, ?
38. CC(=O)Nc1ccc(OC(=O)N(C)C)cc1
    >57, 5%
39. CCN(CC)S(=O)(=O)c1ccc(Cl)c(C(=O)NCC2CCCO2)c1 (configuration not stated)
    >57, 0%
40. CCN(CC)CCO[C@H]1CC[C@@]2(C)C(=CC[C@@H]3[C@H]2CC[C@]2(C)C(=O)CC[C@H]32)C1
    >57, 25µM*
41. CCn1c(=O)cc(OCC(=O)N2CCN(c3cccc(C(F)(F)F)c3)CC2)c2ccccc21
    >57, ?
42. O=S(=O)(c1ccccc1)N1CCC2(CC1)CN(Cc1ccccc1)C2
    >57, ?
43. O=C(CCCc1nc(-c2ccccc2Cl)no1)NCc1cccnc1
    >57, ?
44. CCCCCOC(=O)c1ccccc1C(=O)O
    >57, 10%
45. CCCCN(CC)Cc1ccc(CNC(=O)Nc2ccc(OC)cc2OC)o1
    >57, -3%
46. COC(=O)c1ccccc1NC(=O)COc1ccccc1
    >57, ?
47. COc1ccc(CC(=O)N2CCN(c3ccccn3)CC2)cc1
    >57, 8%
48. CCCC(=O)C1C(=O)CC(C)(C)C(c2cc(C)no2)C1=O (configuration not stated)
    >57, -1%
49. O=C(c1cnccn1)N1CCC2(CCN(Cc3cc(C(F)(F)F)cc(C(F)(F)F)c3)CC2)CC1
    >57, 4%
50. CCCCO
    ., -15%&-3%
51. CCc1cc2c(=O)c(-c3nc4ccccc4n3C)c(C)oc2c(CN2CCN(C)CC2)c1O
    >57, -6%
52. Cc1ccc(S(=O)(=O)N[C@@H](CC(C)C)C(=O)NCc2ccco2)cc1
    >57, -16%
53. CSC(=NC1CCCCC1)NS(=O)(=O)c1ccccc1
    >57, -4%
54. O=C(CSc1nnc(CN2CCOCC2)n1-c1ccc(Cl)cc1)Nc1cc(Cl)ccc1O
    >57, 14%
55. CCN1C(=O)c2cccc3cccc1c23
    3.9*, ?
56. Cc1ccc(C)c(NC(=O)C2CC(Cl)=CCC2C(=O)O)c1 (configuration not stated)
    >57, -2%
57. COC(=O)Cn1c(=NC(=O)CSC(C)=O)sc2ccccc21
    >57, 18%
58. N#CC1=C2SCC(O)(c3ccccc3)N2C(=O)CC1c1cccs1 (configuration not stated)
    >57, ?
59. Cc1cc(C(=O)OCC(=O)N2CCOCC2)c2ccccc2n1
    >57, 3%
60. COC(=O)COC(=O)c1ccc(O)cc1
    ., -5%

The last four compounds of the section above open the next one.
Value order: Prx2 Sm inh, LT uptake inh
57. COC(=O)Cn1c(=NC(=O)CSC(C)=O)sc2ccccc21
    >57, 18%
58. N#CC1=C2SCC(O)(c3ccccc3)N2C(=O)CC1c1cccs1 (configuration not stated)
    >57, ?
59. Cc1cc(C(=O)OCC(=O)N2CCOCC2)c2ccccc2n1
    >57, 3%
60. COC(=O)COC(=O)c1ccc(O)cc1
    ., -5%
61. CCCCn1c(NCc2ccccn2)nc2ccccc21
    >57, 11%
62. O=C(Nc1cccnc1)C1(c2ccccc2)CCCC1
    >57, 3%
63. COCCn1c(=O)c(-c2ccc(Cl)cc2)nc2cnc(Oc3cccc(Cl)c3)nc21
    >57, -13%
64. Cc1nc2cnc(Nc3ccccc3)nc2n(C)c1=O
    >57, ?
65. CN(C)C(=O)c1ccccc1-c1ccccc1
    >57, 0%
66. C=CCN1CCN(C(c2ccccc2)c2nnnn2CCC(C)C)CC1 (configuration not stated)
    >57, -4%
67. COc1cccc(CNC(=O)C2CCCN(c3nn4c(=O)cc(C)nc4s3)C2)c1 (configuration not stated)
    >57, 9%
68. O=c1[nH]c(=O)c2nc3ccccc3nc2[nH]1
    >57, -5%
69. COc1ccc(OC2C=CC(C#Cc3ccc(Br)cc3)OC2CO)c(C(C)(C)C)c1 (configuration not stated)
    ., -15%[8 µM]
70. Cc1nc(C)n(CC(O)COc2ccc3cc(Br)ccc3c2)n1 (configuration not stated)
    >57, -7%
71. O=C(c1cccs1)N1CCCC(c2ccccc2)C1 (configuration not stated)
    ., -12%
72. O=C(O)CC(NC(=O)c1ccccc1NC(=O)c1ccccc1)C(=O)O (configuration not stated)
    ., -6%
73. O=C(Nc1ccon1)c1cccc(S(=O)(=O)N2CCCC2)c1
    >57, ?
74. COCCn1c(SCC(=O)Nc2ccccc2)nc2c1c(=O)[nH]c(=O)n2C
    >57, -4%
75. CCOC(=O)N1CCN(S(=O)(=O)c2cc(C)c(C)cc2C)CC1
    >57, 11%
76. NC(=O)CSc1oc(-c2ccc(F)cc2)nc1S(=O)(=O)c1ccccc1
    >57, 7%
77. COCCCN1C(=O)C(=O)/C(=C(/O)c2ccc(OC(C)C)cc2)C1c1ccncc1 (configuration not stated)
    >57, .
78. O=C(O)c1ccc(O)cc1O
    ., -5%&5%
79. Cc1cccc(C)c1NC(=O)N1CCC(c2nc3ccccc3o2)CC1
    >57, -5%
80. Cc1cc2nc(N)sc2cc1C
    ., ?
81. O=S(=O)(c1ccc(Oc2ccc3oc4ccccc4c3c2)nc1)N1CCCC1
    >57, -15%
82. CN1CCN(C2=C(Cl)C(=O)N(c3ccc(Cl)cc3)C2=O)CC1
    >57, -11%
83. Cc1nc2ccc3nc(NC(=O)c4ccco4)sc3c2s1
    >57, -2%
84. CCOC(=O)N1CCN(c2c(NCCc3ccc(OC)c(OC)c3)c(=O)c2=O)CC1
    >57, 5%
85. CCC1CCCCN1CCNC(=O)C1CCN(S(=O)(=O)c2c(C)noc2C)CC1 (configuration not stated)
    >57, 26%
86. Cc1cc2c(c(=O)o1)C(C(C)C)C(C#N)=C(N)O2 (configuration not stated)
    >57, -7%
87. Cc1nnc(NC(=O)CCC(=O)NCc2ccco2)s1
    >57, -5%
88. O=C(Cn1c(=O)oc2cc(S(=O)(=O)N3CCOCC3)ccc21)N1CCc2ccccc2C1
    >57, -2%
89. O=C(Nc1ccccc1N1CCN(C(=O)c2ccccc2)CC1)c1cc2ccccc2o1
    >57, 13%
90. CCN(CC)C(=O)c1csc(Nc2ccc(C)cc2)n1
    >57, -9%

Overlap with the part before: 5 entries, then new ones.
Value order: Prx2 Sm inh, LT uptake inh
86. Cc1cc2c(c(=O)o1)C(C(C)C)C(C#N)=C(N)O2 (configuration not stated)
    >57, -7%
87. Cc1nnc(NC(=O)CCC(=O)NCc2ccco2)s1
    >57, -5%
88. O=C(Cn1c(=O)oc2cc(S(=O)(=O)N3CCOCC3)ccc21)N1CCc2ccccc2C1
    >57, -2%
89. O=C(Nc1ccccc1N1CCN(C(=O)c2ccccc2)CC1)c1cc2ccccc2o1
    >57, 13%
90. CCN(CC)C(=O)c1csc(Nc2ccc(C)cc2)n1
    >57, -9%
91. C=CCN=c1sc(C(=O)OC)cc(=O)n1CC=C
    >57, 15%
92. Cc1[nH]c(=O)[nH]c(=O)c1S(=O)(=O)N1CCC(C(=O)N2CCN(Cc3ccccc3)CC2)CC1
    >57, 6%
93. COc1ccc(CCNC(=O)c2nnc(Cc3c(F)cccc3Cl)o2)cc1OC
    >57, -10%
94. CCCn1c(-c2ccc(F)cc2)nc2c(NCCCCN(C)C)nc(C)nc21
    ., -16%
95. O=C(c1cnccn1)N1CCC2(CC1)CN(c1ncccn1)C2
    >57, -2%
96. O=C1Nc2ccccc2C12OCCCO2
    >57, 10%
97. CCOC(=O)/C(C(N)=NC(C)C)=C(\O)c1ccccc1
    >57, 6%
98. Cc1cc(C)cc(N(C(=O)CNC(=O)c2ccco2)C(C(=O)NC2CCCC2)c2cccnc2)c1 (configuration not stated)
    >57, 1%
99. O=c1cnc2cnc(Oc3cccc(Cl)c3)nc2n1Cc1ccc(F)cc1
    >57, 2%
100. COc1cc2c(cc1OC)CN(C(=O)CC1CC3CCC1C3)CC2 (configuration not stated)
    >57, -10%
101. O=C(Nc1cccc2c1CCCC2)C1CCCN(S(=O)(=O)c2cccc3nonc23)C1 (configuration not stated)
    >57, -19%
102. COC(=O)N1CCN(c2ccc(C(C)=O)cc2)CC1
    >57, -3%
103. N#CCCS(=O)(=O)c1nnnn1-c1ccccc1
    ?, 10µM*
104. CCOc1ccc(NC(=O)C2CC(=O)N(CC)C(=Nc3ccc4c(c3)OCO4)S2)cc1 (configuration not stated)
    >57, -11%
105. Cc1ccc(Nc2nc(N)nc(CSc3nccn3C)n2)c(C)c1
    >57, 6%
106. CCOC(=O)c1ccccc1NC(=O)COC
    >57, 6%
107. CCC(=O)c1cc(F)c(N2CCN(S(=O)(=O)c3ccccc3)CC2)cc1C
    ., -21%
108. C#CC(CO)N(CCN(Cc1ccccc1)C(C#C)CO)Cc1ccccc1 (configuration not stated)
    ., -26%
109. CSCCC(NC(N)=O)C(=O)NCC1CCCCC1 (configuration not stated)
    >57, 1%
110. COCC(C)n1c(SCc2ccc(C(=O)OC)o2)nc2ccccc2c1=O (configuration not stated)
    >57, 6%
111. CCCN(CCC)CCNc1c(N2CCN(C(=O)OCC)CC2)c(=O)c1=O
    >57, ?
112. COCCCNC(=O)CC(NS(=O)(=O)c1ccc(OC)cc1)c1ccc(OC)cc1 (configuration not stated)
    >57, 4%
113. COc1cc(OC)cc(C(=O)NC2CC3CCC(C2)N3Cc2ccco2)c1 (configuration not stated)
    >57, ?
